PrP 5UTR inh – inhibition of PrP 5' UTR reporter expression | cell-based PrP 5' UTR mRNA reporter, plate reader | inhibition, % (no concentration beside the values) | 340,000 compounds, 0.35% hits;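 active = every replicate at 50% or more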;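 note: 0 = median of the neutral control wells; tested in H4 reporter cells; numbers are from one replicate; inactives centre near -14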
Bead autofluor – counter-screen for toxin protease inhibitors: compound fluorescence; compound autofluorescence counterscreen, microsphere flow cytometry; stronger effect = higher value; fluorescence intensity (test concentration not listed); 360,000 compounds, 3.1% hits;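 active = at least 3 SD above the mean of all compounds, about 16000 in these data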;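 note: 100 nL of 1 mM stock went into each well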
The depositor's hits bear a star.

structure	PrP 5UTR inh	Bead autofluor
CC(=O)N1CCCC1C(=O)O (stereo unspecified)	-19	5470
CC(=O)c1sc2c(c1OC(=O)c1ccccc1)c(=O)n(-c1ccccc1)c(=S)n2-c1ccccc1	35	3019
Cc1ccc2c(c1)[C@@H]1[C@H](CO2)[C@H](c2ccccc2)[C@]2(C)C(=O)N[C@H](C)C(=O)N12	-18	3480
CN(C)CCNC(=O)c1ccc(Cl)c2cc3ccccc3nc12	-2	2546
CCOC(=O)c1c2c(n(-c3ccc(OC)cc3)c1C)C(=O)C(=O)c1ccccc1-2	-43	4091
COC(=O)C1=C(c2ccc(-c3ccccc3)c(F)c2)C[C@@H]2CC[C@H]1N2C(=O)NC1CC1	-17	3301
COC(=O)C1=C(c2ccc3ccccc3c2)C[C@@H]2CC[C@H]1N2C(=O)NC(C)C	-21	4149
C[C@H]1CN([C@@H](C)CO)C(=O)Cc2cc(NC(=O)CCC(F)(F)F)ccc2O[C@H]1CN(C)CC1CC1	-16	4334
CN(CC(=O)Nc1cccc(F)c1)C(=O)C1CCC(C(=O)N(C)CC(=O)Nc2cccc(F)c2)CC1 (stereo unspecified)	-31	3612
C=C1CC[C@H](O)C/C1=C/C=C1\CCC[C@]2(C)[C@@H]([C@H](C)/C=C/[C@H](C)C(C)C)CC[C@@H]12	-4	5305
CC1=CC(=O)OC2CC3OC4C[C@@H](C)C5OC6CC7O[C@]8(C)C/C=C\C9OC%10CC%11OC(CC(C)C%12OCCO%12)CC(O)[C@]%11(C)OC%10CC9OC8C[C@]7(C)O[C@]6(C)CCC5OC4C[C@]3(C)OC12 (stereo partly specified)	-19	3536
O=C1C=C(c2cccc(CO)c2)C[C@@H](c2ccc(Cl)cc2)C1	-6	4222

Next entries.
structure	PrP 5UTR inh	Bead autofluor
O=C(C[C@@H]1C/C=C\CCC(=O)OC[C@@H]2CCCN2C1=O)N[C@@H](CO)Cc1ccccc1	-31	2767
CCN(CC)C1Oc2cc3c(cc2C(c2cc(OC)c(O)c(OC)c2)C1C)OCO3 (stereo unspecified)	-29	3250
COc1ccc(NC(=O)CN2C(=O)S/C(=C/c3cccn3-c3ccc(C(=O)O)cc3)C2=O)cc1	-16	5867
COc1ccc(-n2cnc3cc(NS(=O)(=O)c4ccc(C)cc4)ccc32)cc1	-35	5562
CCOC(=O)[C@H]1[C@H]2COc3ccccc3[C@@H]2N2C(=O)c3ccc(C)cc3NC(=O)[C@@]12C	4	2776
COc1ccccc1NS(=O)(=O)c1ccc(C)c(C(=O)NNC(=O)c2csc(N3CCOCC3)n2)c1	1	2774
COc1ccc(CCCN2CCC(CN3C(=S)NC[C@@H]3Cc3ccccc3)CC2)cc1OC	-4	3187
CC(C)Oc1cccnc1N(C)C1CCN(Cc2ccccc2)CC1	-10	6695
COC(=O)C1=C(c2ccc(Cl)c(C(F)(F)F)c2)C[C@@H]2CC[C@H]1N2C(=O)NCCOc1ccc(OC)cc1	-14	2971
COc1ccc2c(c1)CCCC(Br)C2=O (stereo unspecified)	-4	3942
O=C(N[C@@H](Cc1ccccc1)C(=O)OCc1ccccc1)c1nc[nH]c1C(=O)N1CCNCC1	-13	4233
CC(C)Cc1ccc(C(C)CC2=CCC(CN(C)C)C2=O)cc1 (stereo unspecified)	-23	3904

One compound at a time, as listed above. Order of values: PrP 5UTR inh	Bead autofluor
O=C(N[C@@H](Cc1ccccc1)C(=O)OCc1ccccc1)c1nc[nH]c1C(=O)N1CCNCC1 as listed: -13	4233
COc1ccccc1NS(=O)(=O)c1ccc(C)c(C(=O)NNC(=O)c2csc(N3CCOCC3)n2)c1 as listed: 1	2774
CC(C)Cc1ccc(C(C)CC2=CCC(CN(C)C)C2=O)cc1 (stereo unspecified) as listed: -23	3904
CCOC(=O)[C@H]1[C@H]2COc3ccccc3[C@@H]2N2C(=O)c3ccc(C)cc3NC(=O)[C@@]12C as listed: 4	2776
CC(C)Oc1cccnc1N(C)C1CCN(Cc2ccccc2)CC1 as listed: -10	6695

(listing goes on)
structure	PrP 5UTR inh	Bead autofluor
COc1ccc([C@H]2CC(=O)C=C(c3ccc4ncccc4c3)C2)cc1	-41	3101
CCNC(COC(=O)c1ccc([N+](=O)[O-])cc1)C1CCCCC1 (stereo unspecified)	-15	3563
CC(C)C[C@@H](CO)NS(=O)(=O)c1c(F)cccc1F	0	3341
O=c1ccn([C@@H]2O[C@H](COS(=O)(=O)O)[C@@H](O)[C@H]2O)c(=O)[nH]1	-1	2955
NC(CSC1(c2cccc3ccccc23)c2ccccc2-c2ccccc21)C(=O)O (stereo unspecified)	-9	3465
C[C@H](CO)N1C[C@H](C)[C@@H](CN(C)S(=O)(=O)c2ccc(F)cc2)Oc2ccc(NC(=O)CCN3CCOCC3)cc2C1=O	2	3952
O=C(O)[C@H]1CCCN1S(=O)(=O)c1cccc2cccnc12	-34	3930
O=C1Cc2c([nH]c3ccc(Br)cc23)-c2ccccc2N1	-87	2894
COc1cc(C(=O)NC2CCN(C)CC2)ccc1Nc1ncc2c(n1)N(Cc1ccccc1)CCC(=O)N2C	-28	3090
COc1ccc(C2(CNC(=O)c3cc(OC)c(OC)c(OC)c3)CCCC2)cc1OC	-4	4043
C=CCC[C@@H](Cc1ccc(F)cc1)C(=O)OC[C@@H](Cc1c[nH]c2ccccc12)NC(=O)[C@@H](CC=C)CC(=O)N[C@@H](CO)Cc1ccccc1	-20	3424
O=S(=O)(NC(CO)Cc1ccccc1)c1ccc(Br)cc1F (stereo unspecified)	-52	3756

Further structures.
structure	PrP 5UTR inh	Bead autofluor
Oc1cc(O)cc(/C=C/c2ccc(O)c(O)c2)c1	-123	5597
N#Cc1cc2c(=O)n3ccccc3nc2n(-c2ccc(Cl)cc2)c1=O	-36	4747
Cc1cccc([C@@H](NC(=O)OC(C)(C)C)C(=O)OC(C)(C)C)c1	-18	3601
CC(C)C[C@H](NC(=O)c1nc[nH]c1C(=O)NCCNC(=O)OC(C)(C)C)C(=O)CNCCNC(=O)c1[nH]cnc1C(=O)N[C@@H](C)C(=O)OC(C)(C)C	-4	3754
CCN1C(=NCCc2ccc([N+](=O)[O-])cc2)N[C@@H](c2ccccc2)[C@H](C(=O)OC)[C@H]1C	-20	3042
CC(N)C(=O)NC1C2C(=C(O)CC(O)C2O)C(=O)OC1(C)C(Cl)Cl (stereo unspecified)	22	2831
COc1cccc2c1C(=O)c1c(O)c3c(c(O)c1C2=O)CC(O)(C(=O)CO)CC3OC1CC(N(C)C)C(O)C(C)O1 (stereo unspecified)	86*	3384
C=CC[C@H](CC(=O)NCCO)C(=O)NCCOC(=O)[C@@H](CC=C)Cc1ccc(F)cc1	-26	3074
CC(=NNC(=S)N1CCC1)c1ccccn1	31	3172
COc1ccc([C@H]2CC(=O)C=C(c3ccc(Cl)c(Cl)c3)C2)cc1	-4	2954
C[C@@H]1COC(=O)[C@H](Cc2ccc(F)cc2)CC/C=C\C[C@@H](CC(=O)NCCO)C(=O)N1	4	3638
CCOC(=O)NC1CCc2cc(OC)c(OC)c(OC)c2-c2ccc(SC)c(=O)cc21 (stereo unspecified)	58*	3856

Remaining list, next part.
structure	PrP 5UTR inh	Bead autofluor
Cc1ccc(S(=O)(=O)NN=C2C(=O)C3CCC2C3Cl)cc1 (stereo unspecified)	-21	3421
C=CCCC(=O)N1C[C@H]2CON(C)[C@H]2C[C@H]1c1cccc(Br)c1	-11	4127
Cc1ccccc1CN1Cc2cnnn2-c2ccccc2C1C#N (stereo unspecified)	-32	3961
CNc1snc(C)c1C(=O)OCC(=O)N(C)c1ccccc1	-7	3851
Nc1ccccc1C(=O)C[C@H](N)C(=O)O	-25	5650
CCCCC(CC)COC(=O)CCCCC(=O)OCC(CC)CCCC (stereo unspecified)	-16	5529
O=C(NCc1ccccc1)c1cccc(NC(=O)C2CCCC2)c1	-7	3397
O=C1[C@H](Cc2ccccc2)NCC=CC[C@H](c2ccc(Cl)cc2)N1Cc1ccc(Cl)cc1	-20	2937
C#CCOCCOCCOCCNc1nc(N2CCN(C(=O)[C@H]([C@@H](C)O)n3cc(CCCCN)nn3)CC2)nc(N2CCN(C(=O)[C@H](CCCCN)n3cc(CCC(=O)O)nn3)CC2)n1	-15	3814
NC(=S)NN=C1C=CCCC1	-19	3854
COc1ccc(/C=N/NC(=O)c2ccccc2F)cc1CN1CCN(c2ccc(F)cc2)CC1	-11	3015
C=CC[N@@+]12CC[C@]34c5ccccc5N5/C=C6\C7N(/C=C(\C53)[C@@H](C[C@@H]41)/C(=C/CO)C2)c1ccccc1[C@@]71CC[N@@+]2(CC=C)C/C(=C\CO)[C@@H]6C[C@@H]12 (stereo partly specified)	-5	4440

Going on with the list:
structure	PrP 5UTR inh	Bead autofluor
O=C(C[C@H]1C/C=C\CC[C@H](Cc2ccc(F)cc2)C(=O)O[C@@H](c2ccccc2)CNC1=O)N[C@H](CO)Cc1ccccc1	-12	2755
Cc1ccccc1OC(=O)c1cccc(S(=O)(=O)N2CCN(C)CC2)c1	7	2889
Cn1c(=O)c2c(nc(OC3CCCC3)n2C)n(C)c1=O	-13	3834
COC(=O)C1=C(c2ccc(-c3ccccc3)c(F)c2)C[C@@H]2CC[C@H]1N2C(=O)NC1CCCCC1	-6	3900
C[C@H](O)[C@@H]1C(=O)N2CCc3ccc(-c4ccccc4)cc3[C@@H]2C[C@@H]1N(C)C(=O)NC1CCCCC1	-23	3920
CNc1nc(NC)nc(NNC(=O)c2ccccc2)n1	-28	4264
O=C(NCc1cccc(F)c1)c1cccc2c1C(=O)c1ccc(N3CCCC3)cc1S2(=O)=O	-2	4444
CC[C@H](C)C(N)c1cn([C@@H](CC(N)=O)C(=O)N2CCNCC2)nn1 (stereo partly specified)	-13	3626
COC(=O)c1ccc(N2CCOCC2)c(NC(=O)c2cc3ccccc3o2)c1	-15	2976
CCOC(=O)C1=C(C)N(C[C@@H]2CC[C@@H](Cc3ccc(-c4ccccc4)cc3)O2)C(=O)NC1c1ccc(-c2ccccc2)cc1 (stereo partly specified)	-26	3928
O=C1C=C(c2ccccc2Oc2ccccc2)C[C@@H](c2ccc3c(c2)OCO3)C1	-27	3472
COc1cccc(CNc2nc3ccc(NC(C)=O)cc3s2)c1	-22	3768

Gathered by group: the compounds so far with a nitro group on carbon.
structure	PrP 5UTR inh	Bead autofluor
CCNC(COC(=O)c1ccc([N+](=O)[O-])cc1)C1CCCCC1 (stereo unspecified)	-15	3563
CCN1C(=NCCc2ccc([N+](=O)[O-])cc2)N[C@@H](c2ccccc2)[C@H](C(=O)OC)[C@H]1C	-20	3042

(listing goes on)
structure	PrP 5UTR inh	Bead autofluor
COc1cccc(C=NNC(=O)CCCC(=O)NN=Cc2cccc(OC)c2)c1	-20	4290
COc1cccc(C(=O)O[C@@H]2[C@H](Cc3ccccc3)NS(=O)(=O)[C@H]3C[C@@H]4C=C[C@]23O4)c1	-19	4146
Cc1c(CCCl)c(Cl)n2c(nc3ccccc32)c1C#N	44	4421
O=c1cc(-c2ccc(O)c(O)c2)oc2cc(O[C@@H]3O[C@H](CO)[C@@H](O)[C@H](O)[C@H]3O)cc(O)c12	-8	4231
CC(C)(C)OC(=O)C[C@H]1C/C=C\C[C@H](CC(=O)N(CCO)Cc2ccccc2)C(=O)N[C@@H](c2ccccc2)COC1=O	-32	4266
Cc1cc(OCc2nc(N)nc(N)c2-c2ccc(Cl)c(Cl)c2)ccc1[N+](=O)[O-]	15	3052
Nc1ccc2c(c1)C(=NO)c1cc([N+](=O)[O-])ccc1-2	47	4415
COc1cc(C(=O)NC2CCN(C)CC2)ccc1Nc1ncc2c(n1)N(CCc1ccccc1)CCC(=O)N2C	-23	4188
O=C(N/N=C/c1ccc(Cl)c([N+](=O)[O-])c1)c1ccc2c(c1)OCCO2	-14	3821
Cc1cccc2c1c1ccc3c(c1n2C)C(=O)C=CC3=O	-19	3072
O=c1ccn([C@@H]2O[C@H](CNCc3ccc(-n4cccn4)cc3)[C@@H](O)[C@H]2O)c(=O)[nH]1	-1	3603
COC(=O)C1=C(c2cccc(OCc3ccccc3)c2)C[C@@H]2CC[C@H]1N2C(=O)NCc1cc(C)oc1C(F)(F)F	-7	3819

Additional structures:
structure	PrP 5UTR inh	Bead autofluor
Cc1c(C(c2cc(O)ccc2O)c2c(C)n(C)n(-c3ccccc3)c2=O)c(=O)n(-c2ccccc2)n1C	-18	3836
O=C(c1cccc(Cl)c1)N1CCC2CC1c1cc(N3CCOCC3)ccc12 (stereo unspecified)	-11	3372
Cn1c(=O)c2c(nc(OC3CCCCCC3)n2C)n(C)c1=O	-5	3572
COc1ccc(/C=C2/CSC/C(=C/c3ccc(OC)c(OC)c3)C2=O)cc1OC	-51	2971
COC(=O)C1=C(c2ccc(OC)c(OC)c2)C[C@@H]2CC[C@H]1N2C(=O)N1CCOCC1	-43	3830
C/C(CC(=O)Nc1ccc(Cl)cc1)=N\NC(=O)C(=O)N1CCCCC1	-36	4245
C=CC[C@H](CC(=O)N(CCO)Cc1ccccc1)C(=O)NC[C@@H](OC(=O)[C@@H](CC=C)Cc1ccc(F)cc1)c1ccccc1	-18	2953
COc1ccc(NC(=O)N(C)C[C@H]2Oc3ccc(NS(=O)(=O)c4cccs4)cc3C(=O)N([C@H](C)CO)C[C@@H]2C)cc1	7	3430
Cc1ccc(S(=O)(=O)N2[C@@H](c3ccc(Cl)cc3)C(C(=O)O)=CC[C@H]2c2cccc(Cl)c2)cc1	-25	3581
Nc1c(C(=O)OCC(=O)Nc2ccccc2Br)[nH]c(=O)[nH]c1=O	-4	3847

Assay outcomes: PubChem, several laboratories

This is a subset, so the mix of outcomes need not match the whole.
